gsp antagonist – antagonizes gsp, the McCune-Albright syndrome mutation; gsp-mutant cells, cAMP HTRF, 30 min; control for the full effect not named in the record; Potency, µM (top dose mostly 76.9 µM), for the others: at the top dose activity change, negative = inhibition, actives largely listed as inhibitors; 0.4% of 340,000 active; AID 624288; active = falling curve of any shape with a large fitted effect; inconclusive = falling curve, mostly with a smaller effect; inactive = flat or rising curve; cell line not stated here;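 further: intracellular cAMP measured with PDE inhibitor Ro 20-1724 present during compound exposure; potency means the concentration at half of the fitted maximal effect; on the % scale 0 is the no-effect control and ±100 the full control effect; nearly all actives have a fitted effect of over 65% in size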
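Cells, 2000/well, grown 16–24 h in DMEM 10% FBS with 0.5 mg/ml G418, then compounds plus […] (300 uM addition stock), 30 min at 37C. cAMP read by HTRF (cAMP-d2 and anti-cAMP antibody-K in lysis buffer) after 30 min RT.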
ClpP mod – qHTS Assay for Activators of ClpP | ATP-dependent Clp protease proteolytic subunit (Bacillus subtilis (strain 168)), P80244 | purified B. subtilis ClpP, FRET peptide cleavage, 20 min | 1.9% of 340,000 active | Potency, µM (doses to about 57.5 µM), without a hit: at the top dose activity change, negative = active; active = well fitted falling curve with a large enough effect; inconclusive = small, poorly fitted or top-dose-only effect; inactive = no such curve, though single readings can be large or run the other way; further: potency means the concentration at half of the fitted maximal effect; the source files actives as falling curves though it sought activators and does not explain the sign; nearly all actives have a fitted effect of over 65% in size; many hits overshoot -100%
Target sequence (P80244 whole entry, looked up): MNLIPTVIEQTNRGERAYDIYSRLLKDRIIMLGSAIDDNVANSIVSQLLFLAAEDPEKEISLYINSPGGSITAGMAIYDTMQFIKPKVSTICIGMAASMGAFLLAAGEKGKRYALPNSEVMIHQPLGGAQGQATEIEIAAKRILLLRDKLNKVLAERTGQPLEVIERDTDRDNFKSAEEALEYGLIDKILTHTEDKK
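FRET quenching reversal measured ClpP activation: 10 microg/mL B. subtilis ClpP at pH 8 with the FRET-FV decapeptide, read at 430 nm after 320 nm excitation. The 20-min minus 0-min signal was scaled between DMSO/no-enzyme wells and ADEP (5.8 microM final).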
Sfp inh – Sfp phosphopantetheinyl transferase inhibition; Biochemical Sfp PPTase activity, qHTS; Potency, µM, inactives show max response, negative = inhibition, most hits filed as inhibitors; 3.5% of 310,000 active; active means well fitted inhibition curve with a large enough effect; inconclusive means small, poorly fitted or top-dose-only effect, or another doubt; inactive means no such curve, though single readings can be large or run the other way;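 further: the enzyme is Sfp with the accession as filed and its product quenches rhodamine fluorescence; potency means the concentration at half of the fitted maximal effect; 0% = enzyme reaction without inhibitor and -100% = no enzyme wells; top concentration of the series not given in the record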
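Fluorescence-quenching assay with 15 nM Sfp, 5 uM rhodamine-CoA and 12.5 uM BHQ-2-labelled ybbR peptide in pH 7.6 Hepes/MgCl2 buffer. Enzyme was pre-incubated with compound for 15 min at room temperature. Rate was taken from the 30-min fluorescence change (525/598 nm).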
gsp agonist – gsp mutant agonism; 0.13% of 340,000 active; Potency, µM (series often up to 76.9 µM), for inactives: at the highest dose activation (cAMP increase), hits mostly activators; AID 624287; gsp mutant cells, cAMP HTRF, 30 min; control for the full effect not named in the record; active = well fitted activation curve with a large enough effect; inconclusive = small, poorly fitted or top-dose-only effect, or another doubt; inactive = no such curve, though single readings can be large or run the other way; cell line not stated here;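 further: phosphodiesterase inhibitor Ro 20-1724 added with compounds to block cAMP breakdown; potency means the concentration at half of the fitted maximal effect; nearly all actives have a fitted effect of over 60% in size; about a fifth of the inactives were tested at one dose only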
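Cells stably selected in G418 were plated at 2000/well, grown 16-24 hr, then given compounds in DMSO with the PDE inhibitor […] (300 uM solution added) for 30 min at 37C; cAMP was read by HTRF.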
Menin-MLL FL inh – displaces fluorescein MLL peptide from human menin; AID 1766; FP activity change, % at 61.4 µM; Fluorescence polarization, fluorescein-MLL peptide displacement from menin; 290,000 tested, under 10 active; inconclusive = falling polarisation curve, or a change in total fluorescence; inactive = total fluorescence flat and polarisation flat or rising; no compound was filed as active; the % refers to the polarisation; negative = inhibition;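 further: % of control where 0% means no effect; inhibitors lower the polarisation; unlabelled MLL peptide was the positive control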
TRPV1 potentiator – enhances activation of the human vanilloid receptor TRPV1; Q8NER1; TRPV1-expressing cells, Fluo-8 calcium influx, capsaicin EC20 potentiation; host cell line not named in the record; control for the full effect not named in the record; potentiation, % at 8.33 µM; 0.02% of 320,000 active; active means potentiation above 80%; inconclusive means 30% to 80%; inactive means below 30%; further: 0% is about no effect
Target sequence (Q8NER1 whole entry, looked up): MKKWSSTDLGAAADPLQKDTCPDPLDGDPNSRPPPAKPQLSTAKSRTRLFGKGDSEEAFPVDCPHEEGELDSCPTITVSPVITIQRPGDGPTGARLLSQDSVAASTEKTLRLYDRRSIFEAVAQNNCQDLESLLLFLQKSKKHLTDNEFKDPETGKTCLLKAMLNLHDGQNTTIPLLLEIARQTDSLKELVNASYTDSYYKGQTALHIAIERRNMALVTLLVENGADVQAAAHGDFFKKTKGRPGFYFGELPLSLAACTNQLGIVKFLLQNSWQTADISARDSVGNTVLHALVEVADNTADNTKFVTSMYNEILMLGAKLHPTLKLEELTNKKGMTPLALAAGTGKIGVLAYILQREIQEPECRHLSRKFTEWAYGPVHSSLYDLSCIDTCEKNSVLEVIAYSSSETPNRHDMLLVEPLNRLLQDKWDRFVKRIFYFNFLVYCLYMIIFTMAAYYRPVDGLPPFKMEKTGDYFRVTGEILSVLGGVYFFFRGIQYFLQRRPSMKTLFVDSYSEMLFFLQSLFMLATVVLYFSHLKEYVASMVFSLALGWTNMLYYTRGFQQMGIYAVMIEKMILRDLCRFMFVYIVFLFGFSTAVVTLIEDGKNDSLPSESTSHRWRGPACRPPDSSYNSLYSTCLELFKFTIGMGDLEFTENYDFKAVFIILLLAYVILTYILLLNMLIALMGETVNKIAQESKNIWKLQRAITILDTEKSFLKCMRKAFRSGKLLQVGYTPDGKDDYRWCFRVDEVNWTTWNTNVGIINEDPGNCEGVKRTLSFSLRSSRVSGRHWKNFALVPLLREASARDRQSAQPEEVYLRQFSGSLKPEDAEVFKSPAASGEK
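Cells expressing TRPV1 were dye-loaded with Fluo-8 and read kinetically: 10 s baseline, 3 min after compound (agonist portion), then 2 min after EC20 capsaicin (allosteric enhancer portion). Calcium-bound dye fluorescence at 480/520 nm.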
TRPML1 blocker – inhibitors of human TRPML1 channel; TRPML1-inducible cells, Ca2+ dye fluorescence, FDSS; stronger effect = lower value; inhibition of EC80 agonist-evoked calcium signal; activity change, negative = inhibition, % (no concentration beside the values); 0.02% of 390,000 active; AID 624415; in the data active means activity change below about -50%; inconclusive means about -30% to -50%; inactive means above about -30%;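 further: stimulus is agonist 54-4 at its EC80 concentration; on the % scale 0 is the no-effect control and ±100 the full control effect; compound concentration not given in the record; the text of the record puts the active cut at -80%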
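Calcium fluorescence in TRPML1-DL cells induced overnight with Tet: a 110 s read after compound pin addition, then a 110 s antagonist read after challenge with 54-4 at 4 uM final (EC80).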
* = called active by the depositor; ? = inconclusive; / = no result given; & = joins results of further samples; [ ] = remark or other dose.

SMILES	gsp antagonist	ClpP mod	Sfp inh	gsp agonist	Menin-MLL FL inh	TRPV1 potentiator	TRPML1 blocker
Cc1ccc2cc(C#N)c(N3CCCN(C(=O)c4cnccn4)CC3)nc2c1	2.4%	/	10.7%	?	/	0.9	5.4
Cc1nc(C(=O)N(C)C)nn1-c1ccc([N+](=O)[O-])cc1	4.4%	/	-1.5%	4.6%	1.2	7.4	12.1
N#CCCn1c(O)c(N=NC(=O)CNC(=O)c2cccs2)c2ccccc21	?	/	9.0%	-2.6%[15.4 µM]	6.1	/	19.1
Cc1ccc(SCc2cc(=O)[nH]c(N3CCN(C)CC3)n2)cc1	8.7%	1.5%	2.9%	-0.4%	0.0	0.9	-1.9
CC(Sc1nnc(C2CC2)n1Cc1ccccc1)C(=O)N1CCNC1=O (configuration not stated)	-1.2%	-0.2%	/	6.2%	/	-8.7	5.3
CC1CN(S(=O)(=O)c2ccc(-c3nc4ccccc4s3)cc2)CC(C)O1 (configuration not stated)	11.2%	-8.2%	-2.8%	-10.1%	-0.3	-9.9	13.4
CN(C(=O)c1cc(-n2cnnc2)ccc1Cl)c1ccccc1	7.2%	-6.4%	3.5%	0.3%	/	?	22.9
CC(=O)c1ccc(OCC(=O)N2CCN(S(=O)(=O)c3ccc(Br)s3)CC2)cc1	-16.6%	1.2%	/	-11.7%	/	3.6	-4.4
CCCC(=O)Nc1nc2c(c(=O)[nH]1)CCCC2	-18.5%	-0.9%	19.2%	?	1.8	2.7	17.6
CC(C)(C)C(O)CN1CCCC1 (configuration not stated)	-11.6%	-0.2%	23.0%	-21.8%	-2.0	5.3	-7.3
O=C(c1ccco1)N1CCN(C(=O)c2cc(-c3ccccc3F)no2)CC1	3.4%	0.0%	1.7%	?	/	-16.6	34.2
COc1ccc(CCC(=O)OCC(=O)Nc2ccc(OC)c(OC)c2)cc1OC	4.0%	/	9.4%	-3.9%	-0.9	-8.0	-7.4
COc1ccc(Cn2c(=S)[nH]c3ccccc3c2=O)cc1	7.8%	0.0%	13.9%	-2.0%	0.1	-10.9	/
CC(=O)c1ccc(O)c(CSc2nncn2C)c1	-2.3%	-0.3%	15.2%	-2.1%	-3.2	3.9	4.9
c1csc(CNCCCN2CCOCC2)c1	-3.6%	-1.0%	17.0%	3.3%	4.7	4.1	10.1
On1c2c(c3c4nonc4ccc31)CCCC2	/	/	44.7µM*	/	?	?	/
Cc1ccc(C(=O)NCc2ccccc2CN2CCCC2)cc1S(=O)(=O)N1CCOCC1	12.9%	-25.8%	/	-9.2%	/	-0.7	14.2
CC(O)CNc1ccc([N+](=O)[O-])cc1S(=O)(=O)N1CCOCC1 (configuration not stated)	-15.9%	0.7%	?	-13.5%[15.4 µM]	-6.4	-0.3	-8.5
C[C@@H]1CN([C@@H](C)CO)C(=O)c2cccc(NS(C)(=O)=O)c2O[C@H]1CN(C)Cc1ccc(C(=O)O)cc1	6.1%	-7.9%	/	/	/	/	13.5
COc1ccc(NC(=O)NCc2cccn2C)c(OC)c1	4.7%	-1.6%	5.3%	10.0%	5.4	-4.0	-2.5
CC1=CC(=C(C#N)C#N)C=C(C)N1CCN1CCNCC1	-8.1%	0.5%	11.6%	15.1%[15.4 µM]	-5.2	10.9	-3.2
Clc1cccc(Cl)c1Cn1cnc2c(NCc3ccco3)ncnc21	11.3%	2.6%	14.5%	?	-1.9	22.8	3.6
Cc1ccc(C)c(OCc2cc(C(=O)N3CCNC(=O)C3)no2)c1	4.7%	-0.7%	15.2%	-5.8%	0.5	-3.7	10.5
COc1ccc(CCNC(=O)C2CC(=O)N(c3ccc(F)cc3)C2)cc1OC (configuration not stated)	4.9%	-2.1%	14.6%	-16.6%	-1.3	-6.0	-7.6
CCCCN(C(C)=O)c1ccc(S(=O)(=O)NC2=NCCCCC2)cc1NC(C)=O	12.3%	-1.9%	/	-4.2%	/	/	-7.9
O=C(Nn1c(-c2ccccc2)nc2ccccc2c1=O)C1CCC1	-2.2%	0.1%	-20.8%	?	2.6	1.5	9.2
C=CCOc1ccccc1CN1CCSCC1	-14.5%	-0.4%	-21.8%	?	6.4	?	28.1
N/C(=N/O)c1nc(N2CCCC2)nc(N(c2ccccc2)c2ccccc2)n1	-4.0%	-3.1%	10.0%	0.7%	-1.5	-0.1	-29.8
CCC(=O)Nc1cc(-c2nn(CC(=O)N3CCCCC3)c(=O)c3ccccc23)ccc1N1CCOCC1	-2.6%	-1.1%	16.6%	2.6%	1.3	3.9	-1.0
CN(CC(=O)NC1CCN(Cc2ccccc2)CC1)S(=O)(=O)c1ccc(Cl)s1	-22.5%	0.9%	/	-35.1%	/	6.9	-14.3
O=C1c2ccccc2NC(c2ccccc2Cl)N1N=C1CCCCCC1 (configuration not stated)	-11.0%	?	-8.8%	-14.3%	-0.1	19.2	72.7
NC(=S)N=Nc1c(O)[nH]c2ccccc12	-10.1%	-2.4%	?	1.2%[15.4 µM]	4.2	5.7	-4.2
O=C(CC1CC2CCC1C2)N1CCN(S(=O)(=O)c2ccccc2F)CC1 (configuration not stated)	6.5%	2.7%	/	-21.0%	/	-12.7	1.4
Cc1ccc(S(=O)(=O)CCC(=O)N2CCN(c3ccccc3F)CC2)cc1	-16.5%	-2.4%	8.1%	-9.1%	0.9	-17.5	16.4
O=C(c1cc(-c2ccccc2Cl)nc2ccc(Br)cc12)N1CCN(c2ccccn2)CC1	-19.5%	-2.0%	/	?	/	/	57.4
COc1cccc(C(=O)c2c(C)c(CCC#N)n3ccccc23)c1	-0.3%	/	4.7%	2.8%	1.4	-25.9	-4.5
COC(=O)c1ccccc1NC(=O)CNc1ccc(F)c(S(=O)(=O)N2CCOCC2)c1	-14.0%	-6.9%	/	-36.4%	/	1.1	-18.8
O=C(O)c1ccc(/C=N/NC(=O)c2ccc(F)cc2)cc1	-3.2%	/	-0.5%	-31.0%[inhibitor][15.4 µM]	5.0	-27.4	20.3
Cc1ccc(SC[C@H](C)CN2CC[C@H](C)CCC2=O)cc1	-1.9%	0.3%&-1.8%	-8.4%	/	-1.9	-14.3	-6.5
Cc1ccc(NC(=O)C(c2ccc(Cl)cc2)N2CCCCC2)cc1 (configuration not stated)	7.6%	0.9%	9.6%	2.1%	3.6	-6.1	-0.4
CCCCN(CC)C(=O)c1ccc(-c2ccccc2)cc1	6.1%	-1.2%	-11.2%	4.6%	4.8	15.4	-12.3
CCOC(=O)c1cc(-c2ccccc2)n(CC(=O)NC(C)(C)C)c1C	-10.8%	0.7%	-0.8%	-15.6%	1.7	0.4	6.4
O=C(NC1CCS(=O)(=O)C1)c1ccc(N2CCCCC2)c([N+](=O)[O-])c1 (configuration not stated)	10.1%	1.3%	12.1%	7.4%[15.4 µM]	/	-12.8	-1.8
Cn1c(=O)c2cc3c(nc2n(C)c1=O)CC(c1ccccc1)CC3=O (configuration not stated)	-2.3%	-1.3%	-1.2%	?	11.3	/	-6.0
O=C(NCCc1c[nH]c2ccccc12)c1ccc([N+](=O)[O-])cc1	3.5%	-0.7%	-2.6%	9.1%	-5.2	-10.4	23.6
O=C(Nc1ncc2c(n1)-c1ccccc1OC2)c1ccccc1Cl	-5.1%	?	-2.0%	-47.6%[inhibitor]	-1.4	/	7.6
CCOc1ccc(S(=O)(=O)N2CCOCC2)cc1NC(=O)CSCc1c(C)noc1C	10.7%	/	/	35.8%[15.4 µM]	/	4.5	-5.0
Cc1ccc(CC(=O)NCc2cccnc2)cc1	/	/	18.3%	/	0.0	15.1	/
COc1cccc(NC(=O)Cc2nnc(SCC(=O)NC(C)c3ccccc3)n2C)c1 (configuration not stated)	1.6%	-0.2%	8.8%	3.8%	2.2	-16.5	-7.5
Cc1c(C(=O)OCC(=O)NC(=O)NC2CCCCC2)cccc1[N+](=O)[O-]	-9.8%	0.7%	/	15.7%[15.4 µM]	/	/	7.4
O=C(O)/C=C/C(=O)Nc1cc(F)ccc1F	18.1%	-1.0%	3.9%	-4.7%	0.0	-0.6	7.5
COc1ccc(NC(=O)CCN2CCN(S(=O)(=O)c3ccc(Br)cc3)CC2)cc1	-3.3%	1.5%	21.4%	-18.4%	/	17.8	3.4
CC(NC(=O)/C(C#N)=C1\N=C(NC(=O)c2cccs2)c2ccccc21)c1ccccc1 (configuration not stated)	-3.8%	-1.0%	-17.1%	5.3%	16.0	29.7	-24.7
CC1(c2ccccc2)NC(=O)N(CC(=O)NCc2cccc(Cl)c2)C1=O (configuration not stated)	/	/	7.2%	-47.5%[15.4 µM]	6.8	-0.7	-3.3
Cc1cc(NC(=O)CSc2nc3c(c(=O)n2Cc2ccccc2)SC(C)C3)no1 (configuration not stated)	-10.9%	-2.0%	-18.6%	-10.1%	0.1	-4.2	-23.2
C=C1C(=O)OC2C=C(CO)CCC=C(CO)CC(OC(=O)C(C)C)C12 (configuration not stated)	2.6%	-0.7%	/	0.2%	/	/	-10.4
CC(Sc1ccc(S(=O)(=O)N2CCN(C)CC2)cn1)C(=O)NC1CCCCC1 (configuration not stated)	-11.3%	-2.3%	/	-0.4%	/	12.2	-11.6
CCN(CC)CCCN(C(=O)c1ccco1)c1nc(-c2ccc(Cl)cc2)cs1	2.1%	/	-5.0%	-54.1%[inhibitor]	-10.3	-3.2	7.4
COc1ccc(CN2Cc3cccc4c3[C@@H](CC2=O)[C@H](O)[C@H](O)C4)cc1	7.3%	1.4%&-0.8%	/	/	/	18.9	-9.2
Cc1cc(C(=O)COC(=O)c2cccnc2Cl)c(C)n1-c1c(C)n(C)n(-c2ccccc2)c1=O	-0.6%	1.2%	22.9%	?	0.9	0.2	?

More entries.
SMILES	gsp antagonist	ClpP mod	Sfp inh	gsp agonist	Menin-MLL FL inh	TRPV1 potentiator	TRPML1 blocker
O=C(Cc1ccccc1)NCCSCc1ccc(Cl)cc1	-0.6%	-0.9%	-1.1%	2.1%	0.4	-10.4	20.6
CC(C(=O)N1CCOCC1)n1cc([N+](=O)[O-])cn1 (configuration not stated)	10.0%	/	16.2%	-11.1%[15.4 µM]	-0.9	17.2	20.5
CCOc1cc(/C=N\NC(=O)c2ccc(NC(=O)C(C)(C)C)cc2)ccc1OC(=O)c1ccc(OC)cc1	-13.1%	-0.5%	-6.4%	3.6%	0.9	1.7	-6.8
O=C(Nn1cnnc1)c1ccc(F)c(S(=O)(=O)N2CCCCC2)c1	2.0%	-2.3%	5.9%	17.1%	6.5	5.6	5.9
